MARV entry inh = inhibitors of Marburg virus binding or entry into cells | Potency, µM (doses to about 49.2 µM), inactives show at the highest dose activity change, negative = inhibition, most hits filed as inhibitors | AID 720532 | Marburg virus pseudotype entry/binding inhibition, cell-based; control for the full effect not named in the record; many of its hits are not listed in these tables | hit rate 6.5% among 18,000; active means well fitted inhibition curve with a large enough effect; inconclusive means small, poorly fitted or top-dose-only effect; inactive means no such curve, though single readings can be large or run the other way; tested in HEK293 cells; note: luciferase read-out
LASV entry inh = inhibitors of Lassa virus binding or entry into cells; Potency, µM (doses to about 49.2 µM), without a hit: at the top dose activity change, negative = inhibition, hits mostly inhibitors; AID 720533; hit rate 4.1% among 18,000; Lassa virus pseudotyped entry inhibition, cell-based qHTS; control for the full effect not named in the record; many of its hits are not listed in these tables; active = well fitted inhibition curve with a large enough effect; inconclusive = small, poorly fitted or top-dose-only effect; inactive = no such curve, though single readings can be large or run the other way; tested in HEK293 cells; note: luciferase read-out
An asterisk follows results filed as active; u = inconclusive; x = not tested or not shown; & = joins results of further samples; ! = a repeat was not active; [ ] = dose if it differs, or a comment. % is set by controls: 0 for no effect and ±100 for the full control effect; potency is the fitted concentration of half-maximal effect.

Compound | LASV entry inh | MARV entry inh
C=C1CC[C@H](O)C/C1=C/C=C1\CCC[C@]2(C)[C@H]1CC[C@H]2[C@@H](C)/C=C\[C@@H](C)C(C)C | u | 3%[17.8 µM]
COC(=O)CCCC1=CC2=CC(=O)C(C)(OC(=O)c3cccs3)C(=O)C2=CN1CCCCO (stereo not given) | -18%[8.59 µM] | 35%[8.59 µM]
NC1=NC(=O)C(c2ccccc2)O1 (stereo not given) | -6% | 3%
COc1ccc(-c2ccc(CN3C(CC(C)C)C(=O)N(Cc4cn(Cc5ccco5)nn4)CCS3(=O)=O)cc2)cc1OC (stereo not given) | x | -13%
O=C(NCCN1CCCCC1)c1ccc(I)cc1 | -1%&-11% | u
C[C@@H]1OC(Oc2ccccc2-c2cc(=O)c3c(O)cc(O)c([C@@H]4O[C@H](CO)[C@@H](O)[C@H](O)[C@H]4O)c3o2)[C@H](O)[C@H](O)[C@H]1O (stereo not given in full) | -3% | 1%
COc1ccc2cc(-c3c(-c4ccncc4)nc(-c4ccc(S(C)(=O)=O)cc4C)n3C)ccc2c1 | x | u
C=CCOC(=O)N[C@@H](CC(C)C)C(C(=O)OC)=C(C)NCc1ccccc1 | -29%[8.59 µM] | u
C[C@@H]1CC[C@H]2C(=O)NC[C@@H](O)CN2[C@@H]1c1ccc(Br)cc1 | -12%&16%[8.59 µM] | 28%&45%[8.59 µM]
CCC[C@@H]1CC2=CC(=O)CC[C@]2(C)[C@@H]2CC[C@@]3(C)[C@H](CC[C@]3(O)CCC(=O)O)[C@H]12 | 1% | -5%
CC1=C(C)C(=O)C(CCCCC#CCCCC#CCO)=C(C)C1=O | u | 0%&-6%
CN1CCCN(C(=O)[C@@H]2C[C@@H](Sc3nc4ccccc4[nH]3)CN2Cc2ccc(-c3ccccc3)cc2)CC1 | -1% | u

The listing continues.
Compound | LASV entry inh | MARV entry inh
Cc1ccc(CN2CCOc3ccc(CN4CCC(Oc5cccnc5)CC4)cc3C2)o1 | 18% | u
CCn1c(-c2nonc2N)nc2c(C#CC(C)(C)O)nc(OCCNC)cc21 | x | 13µM*
O=C(O)CCCOc1ccc(Cl)cc1Cl | -1% | -11%
Nc1nc2[nH]c(=O)[nH]c2c(=O)[nH]1 | 0% | 6%
COc1cc(=O)n2c(c1C(=O)N(C)Cc1nonc1C)CCN(C(=O)c1cccc(C)c1C)CC2 | -14% | -10%
Cc1nn(-c2ccccc2)c(NC(=O)NS(=O)(=O)c2ccc(Cl)cc2)c1C#N | -5% | 4%
CCCCCCCCCCCCCCCC(=O)OCC(COP(=O)(O)O)OC(=O)CCCCCCCCCCCCCCC (stereo not given) | -13%&3% | 2%&-9%
O=C(Cn1cc(COc2ccc(C(=O)c3ccccc3)cc2)nn1)c1ccc(O)cc1 | u | 7%
CNc1ncnc2c1ncn2[C@H]1C[C@H](OP(=O)(O)O)[C@H](COP(=O)(O)O)O1 | -10% | 10%
C=CC[C@]1(C(=O)OC)C=C[C@H](C)[C@@H](c2ccccc2)N1C(=O)C(F)(F)F | 10%[8.59 µM] | -15%[8.59 µM]
CC[C@]1(O)CC(O[C@@H]2CC(N(C)C)C(O)C(C)O2)c2c(cc3c(c2O)C(=O)c2c(O)cccc2C3=O)C1C(=O)OC (stereo not given in full) | -26% | 20µM*
O=c1c(O)c(-c2ccc(O)cc2)oc2cc(O)ccc12 | -8% | 15%

The list goes on:
Compound | LASV entry inh | MARV entry inh
CSC[C@H]1CN(C2CCCCC2)C(=O)[C@H]1CC(=O)Nc1ccccc1 | 13% | 15%
COc1cc2c(cc1OC)[C@@H]1O[C@](CCCCN3C(=O)c4ccccc4C3=O)(C2)Oc2cc(C)n(-c3ccccc3)c(=O)c21 | -6%[8.59 µM] | 7%[8.59 µM]
CC[C@H](C)[C@@H]1NC(=O)[C@H](Cc2ccc(O)cc2)NC(=O)[C@@H](N)CSSC[C@@H](C(=O)N2CCC[C@H]2C(=O)N[C@@H](CC(C)C)C(=O)NCC(N)=O)NC(=O)[C@H](CC(N)=O)NC(=O)[C@H](CCC(N)=O)NC1=O | -5%&-7% | 8%&16%
CO[C@H]1[C@H](NC(=O)c2ccco2)c2ccccc2C12CCN(Cc1cnn(-c3ccccc3)c1)CC2 | 4% | u
COC[C@@H](O)[C@H]1OCc2ccccc2[C@@H]1C=Cc1ccccc1 | 0%[8.59 µM] | -37%[8.59 µM]
O=C1C2=C(C(=O)c3ccccc31)[C@H]1O[C@](c3ccsc3)(Cc3ccccc31)O2 | -8%[8.59 µM] | -8%[8.59 µM]
O=C1OCCN1C(=O)[C@H]1[C@H](c2ccc([N+](=O)[O-])cc2)C(c2ccccc2)=NN1c1ccc(Br)cc1 | -17% | -19%
CCNc1nc(Cl)nc(NC(C)C)n1 | -5% | 4%
O=C1NC(=O)C(c2cccc(Cl)c2)=C1Nc1ccc(Cl)c(C(=O)O)c1 | 17% | -38%
Cc1ccc(C(=O)c2cc(O)c(O)c([N+](=O)[O-])c2)cc1 | -17% | -20%
COc1cc(=O)n2c(c1C(=O)NCc1ccco1)CCN(Cc1cccc(C)n1)CC2 | -5% | u
NCCNC[C@@H](N)CCCN=C(N)N[N+](=O)[O-] | 3% | -14%

Later entries
Compound | LASV entry inh | MARV entry inh
CC(C)(C)CC(C)(C)c1ccc(O)cc1 | u | 45µM*!
C[C@@H](c1ccccc1)N1C[C@H]2CCCN2c2cc(Br)ccc2S1(=O)=O | x | u
CCCCC/C=C\C/C=C\C/C=C\C=C\C(=O)CCCC(=O)O | 3%&-3% | 3%&1%
Cc1ccccc1-c1ccc(C(=O)O)s1 | 8%[107 µM] | 51%[activator][107 µM]
Cc1ccccc1C1CC(=O)Oc2cc(O)ccc21 (stereo not given) | -8% | -15%
COCCN1C(=O)NC(CCc2ccccc2)C(C(=O)OC)=C1C (stereo not given) | 6%[8.59 µM] | 72%[activator][8.59 µM]
O=C(NCc1nnc2n1CCN(Cc1cc(F)cc(F)c1)CC2)c1cccc(F)c1 | u | 5µM*
OC1c2ccccc2N=C2CCCN21 (stereo not given) | -25% | u
O=C([C@@H]1C[C@@H](Sc2nc3ccccc3[nH]2)CN1CC1CCCCC1)N1CCOCC1 | -6% | 1%
CC(C)C[C@@H](CC(=O)N[C@@H](CCC(=O)O)CC(=O)O)NC(=O)[C@@H]1CNCC[C@H]1NC(=O)C[C@H](CCCN)NC(=O)C[C@H](CO)NC(=O)[C@@H]1CCCC[C@H]1N | 6% | -10%
COc1ccc(C(=O)c2ccccc2)c(O)c1O | -19% | u
CCCCc1nc2c(c3c1C[C@H](C)OC3)CN(C(=O)Cc1cccs1)CC2 | -25%[8.59 µM] | u

Additional compounds follow:
Compound | LASV entry inh | MARV entry inh
CC(=O)c1ccc(C(=O)N2CCc3c(cnc(C)c3CNC(=O)c3ccc4c(c3)OCO4)C2)s1 | -4% | -6%
CCC1CN(CCNC(=O)c2cccc3nccnc23)Cc2cc(OC)ccc2O1 (stereo not given) | -9% | 1%
COc1ccc(-c2cc(=O)c3c(O)c(OC)c(OC)c(OC)c3o2)cc1 | 2% | 15%
COc1cc(=O)n(C)c2c(OC[C@@H](O)C(C)(C)O)cccc12 | 1%[17.8 µM] | -7%[17.8 µM]
O=c1c(O)c(-c2ccccc2)oc2cc(O)cc(O)c12 | 13% | 35%[activator]
COc1ccc2ccccc2c1CN1CCOc2ccc(CN3CCN(CCO)CC3)cc2C1 | u | u
CCCCC[C@H](O)/C=C/C=C/C=C/[C@H](O)C/C=C\CCCC(=O)O | 3% | 1%
NC(=O)NO | -6% | 12%
O=C(NC1CCCCC1)OC[C@@H]1CSCCS(=O)(=O)N1 | x | 4%
COc1cccc([C@@H]2Oc3ccc(Br)cc3[C@H](O)[C@@H]2O)c1 | 12%[8.59 µM] | u
C=CC(=O)NCNC(=O)C=C | -16%[107 µM] | -13%[107 µM]
COc1ccc(NC(=O)c2cc(OCCCN(C)C)nn2Cc2ccccc2)cc1 | u | 8.9µM*

Fetched one by one from the entries so far:
Compound | LASV entry inh | MARV entry inh
COc1cc(=O)n(C)c2c(OC[C@@H](O)C(C)(C)O)cccc12 | 1%[17.8 µM] | -7%[17.8 µM]
COc1ccc(NC(=O)c2cc(OCCCN(C)C)nn2Cc2ccccc2)cc1 | u | 8.9µM*
COc1ccc2ccccc2c1CN1CCOc2ccc(CN3CCN(CCO)CC3)cc2C1 | u | u
O=C(NC1CCCCC1)OC[C@@H]1CSCCS(=O)(=O)N1 | x | 4%
COc1ccc(-c2cc(=O)c3c(O)c(OC)c(OC)c(OC)c3o2)cc1 | 2% | 15%
CCC1CN(CCNC(=O)c2cccc3nccnc23)Cc2cc(OC)ccc2O1 (stereo not given) | -9% | 1%
NC(=O)NO | -6% | 12%

Other entries.
Compound | LASV entry inh | MARV entry inh
Cc1ncoc1C(=O)N1CCOc2ccc(CN3CCC(Oc4cccnc4)CC3)cc2C1 | 0% | -7%
CN[C@@H]1[C@@H](O[C@H]2O[C@H](CO)[C@@H](N)[C@H](O)[C@H]2O)O[C@H]2C[C@@H](N)[C@@H](O[C@H]3[C@H](O)[C@@H](O)[C@H](N)C[C@@H]3N)O[C@@H]2[C@@H]1O | 7%[17.8 µM] | -12%[17.8 µM]
CC(C)(C)OC(=O)NCCCC1=CC2=CC(=O)C(C)(OC(=O)c3ccc(Cl)nc3)C(=O)C2=CO1 (stereo not given) | 8% | 11%
CCC(=O)OC1CCC2C3CCc4cc(O)ccc4C3CC[C@]12C (stereo not given in full) | 158µM* | 0.001µM*
CCC(=O)C[C@@H](NC(=O)OC)c1ccccc1 | -20%[8.59 µM] | -2%[8.59 µM]
O=NN(CCCl)C(=O)NC1CCCCC1 | -4% | -9%
Cc1cnc(C)c(-c2cccc3c2OC(CNC(=O)/C=C/c2ccc(F)c(F)c2)C3)n1 (stereo not given) | -25% | 4%
CC(C)=CCC/C(C)=C/CC/C(C)=C/CC/C(C)=C/CC/C(C)=C/CC/C(C)=C/CC/C(C)=C/CC/C(C)=C/CC/C(C)=C/CO | 6%&-4% | 24%&6%
CNC(=O)C[C@H]1C(=O)N(C2CCCCC2)C[C@@H]1C | 12% | -8%
CC(C)C[C@H](NC(=O)[C@H](Cc1ccccc1)NC(=O)CNC(=O)CNC(=O)[C@@H](N)Cc1ccc(O)cc1)C(=O)N[C@@H](CCCN=C(N)N)C(=O)N[C@@H](CCCN=C(N)N)C(=O)N[C@@H](CCC(N)=O)C(=O)N[C@@H](Cc1ccccc1)C(=O)N[C@@H](CCCCN)C(=O)N[C@H](C(=O)N[C@H](C(=O)N[C@H](C(=O)O)[C@@H](C)O)C(C)C)C(C)C | -10%&-18% | 5%&6%
CCN(CC)CC(O)CN1CCCCc2nc(C)c(C)cc21 (stereo not given) | -17%[8.59 µM] | -8%[8.59 µM]
COC(=O)CC=C[C@H](C)[C@H](Cc1ccccc1Br)OC | -11%[8.59 µM] | 50%[activator][8.59 µM]

Next part:
Compound | LASV entry inh | MARV entry inh
COc1cc(Nc2ncc(-c3ccccc3)o2)cc(OC)c1 | 110%[activator] | 58%[activator]
NCCSSCCN | 6% | -13%
CCCCCCCCCc1ccc(O)cc1 | -4% | -8%
COC(=O)N1CCc2cc(OC)c(OC)cc2C1Cc1ccc(OC)cc1 (stereo not given) | 11%[8.59 µM] | 15%[8.59 µM]
Cc1oc(-c2ccccc2NC(=O)C2CCC2)nc1CNC(=O)c1ccccn1 | -3% | -1%
CCCCC[C@H](O)/C=C/C=C\C/C=C\C=C\[C@@H](O)CCCC(=O)O | -16% | 18%
O=C(N[C@@H]1c2ccccc2C2(CCN(C(=O)c3cc4ccccc4oc3=O)CC2)[C@H]1O)c1cccnc1 | -3% | 20%
Nc1c(O)cccc1C(=O)C[C@@H](N)C(=O)O | -3%[17.8 µM] | 9%[17.8 µM]
Cc1cc([C@](C)(N)C(=O)O)ccc1P(=O)(O)O | -2% | 12%
O=C(c1cccs1)N1C[C@@H](n2cc(C3CC3)nn2)[C@@H](O)C[C@@H]1c1ccc(Cl)cc1 | -19% | -11%
COc1ccc2c(=O)c(CC(=O)O)coc2c1 | 0% | 7%
C=C(C)C1Cc2c(ccc3c(=O)c4c(oc23)COc2cc(OC)c(OC)cc2-4)O1 (stereo not given) | 3%&-5% | 4%&2%

(next part)
Compound | LASV entry inh | MARV entry inh
CC(C)C[C@@H](CC(=O)N[C@@H](CCC(=O)O)CC(=O)O)NC(=O)[C@@H]1CNCC[C@H]1NC(=O)C[C@H](CCCN)NC(=O)C[C@H](Cc1ccccc1)NC(=O)[C@@H]1CNCC[C@H]1N | 1% | 11%
CN1[C@@H]2CC[C@H]1CC(O)C2 (stereo not given in full) | -5%[17.8 µM] | -4%[17.8 µM]
COC(=O)C1=C(C)N(Cc2ccccc2)C(=O)NC1c1ccco1 (stereo not given) | 18%[8.59 µM] | 13%[8.59 µM]
COc1cccc(CC(=O)NCC2Cc3cc(Cl)cc(-c4ncccn4)c3O2)c1 (stereo not given) | -7% | 0%
CN1CCc2cc3c(cc2C1C1OC(=O)c2c1ccc1c2OCO1)OCO3 (stereo not given) | -7%&6% | -12%&-8%
Cc1ccc(-c2nn(C(C)(C)C)c3ncnc(N)c23)cc1 | -8%&-3% | 9%&9%
CC(C)c1c(O)ccc2c1CCC1C(C)(C)CCC[C@@]21C (stereo not given in full) | u | -12%
CCC1CN(CC(=O)NCc2cc(C)n(C)n2)Cc2cc(OC)ccc2O1 (stereo not given) | -3% | -23%
Cc1ccc(-c2ccc(CN3C(CC(C)C)C(=O)N(Cc4cn(Cc5ccco5)nn4)CCS3(=O)=O)cc2)cc1 (stereo not given) | -27% | u
